TRPML1 blocker: qHTS for Inhibitors of the Human Mucolipin Transient Receptor Potential 1 (TRPML1); Mucolipin-1 (Homo sapiens), Q9GZU1; TRPML1-inducible cells, Ca2+ dye fluorescence, FDSS; hits give low values; inhibition of EC80 agonist-evoked calcium signal; activity change, negative = inhibition, % (test concentration not listed); 0.02% of 390,000 active; AID 624415, 2012; in the data active means activity change below about -50%; inconclusive means about -30% to -50%; inactive means above about -30%;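 also: stimulus is agonist 54-4 at its EC80 concentration; % is scaled to controls: 0 for no effect and ±100 for the full control effect; compound concentration not given in the record; the text of the record puts the active cut at -80%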
Target sequence (Q9GZU1 whole entry, looked up): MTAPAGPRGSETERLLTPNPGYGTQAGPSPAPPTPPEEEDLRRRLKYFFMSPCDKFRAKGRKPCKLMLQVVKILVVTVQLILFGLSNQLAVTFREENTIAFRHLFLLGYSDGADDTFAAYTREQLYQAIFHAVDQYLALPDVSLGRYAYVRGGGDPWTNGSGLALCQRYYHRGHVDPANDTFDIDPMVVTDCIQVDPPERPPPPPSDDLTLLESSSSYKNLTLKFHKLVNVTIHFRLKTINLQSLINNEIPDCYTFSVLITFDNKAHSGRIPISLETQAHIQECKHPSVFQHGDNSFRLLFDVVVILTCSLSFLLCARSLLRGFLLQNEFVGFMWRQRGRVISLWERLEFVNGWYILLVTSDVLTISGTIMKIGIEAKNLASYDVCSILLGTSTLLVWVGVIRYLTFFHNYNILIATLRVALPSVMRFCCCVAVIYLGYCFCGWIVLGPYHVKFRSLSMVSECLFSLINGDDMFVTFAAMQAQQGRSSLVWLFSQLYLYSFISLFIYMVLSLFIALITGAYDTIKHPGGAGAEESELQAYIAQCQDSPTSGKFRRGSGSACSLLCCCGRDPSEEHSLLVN
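Calcium fluorescence in TRPML1-DL cells induced overnight with Tet: a 110 s read after compound pin addition, then a 110 s antagonist read after challenge with 54-4 at 4 uM final (EC80).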
ClpP mod: qHTS Assay for Activators of ClpP; ATP-dependent Clp protease proteolytic subunit (Bacillus subtilis (strain 168)), P80244; purified B. subtilis ClpP, FRET peptide cleavage, 20 min; Potency, µM (titrated, usually from 57.5 µM), for the others: at the top dose activity change, negative = active; 1.9% of 340,000 active; AID 651965, 2013; active = well fitted falling curve with a large enough effect; inconclusive = small, poorly fitted or top-dose-only effect; inactive = no such curve, though single readings can be large or run the other way; also: potency is read from the fitted curve at half-maximal effect; the source files actives as falling curves though it sought activators and does not explain the sign; nearly all actives have a fitted effect of over 65% in size; many hits overshoot -100%
Target sequence (P80244 whole entry, looked up): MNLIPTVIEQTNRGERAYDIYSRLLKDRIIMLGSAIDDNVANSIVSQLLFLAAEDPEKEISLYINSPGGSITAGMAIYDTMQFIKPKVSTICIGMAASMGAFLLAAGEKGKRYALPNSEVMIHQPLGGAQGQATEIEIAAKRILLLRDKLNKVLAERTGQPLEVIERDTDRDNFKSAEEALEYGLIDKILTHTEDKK
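ClpP 10 microg/mL final, pH 8 Tris/KCl buffer with BSA, glycerol, Tween-20; compound pinned in; FRET-FV substrate; RT 20 min; Ex320/Em430; ΔFRET vs ADEP 5.8 microM, DMSO, no enzyme.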
Sfp inh: qHTS Assay for Inhibitors of Bacillus subtilis Sfp phosphopantetheinyl transferase (PPTase); Biochemical Sfp PPTase activity, qHTS; 4'-phosphopantetheinyl transferase ffp (Bacillus subtilis), Q9F4F7; AID 1490, 2009; Potency, µM, without a hit: max response, negative = inhibition, hits mostly inhibitors; 3.5% of 310,000 active; active = well fitted inhibition curve with a large enough effect; inconclusive = small, poorly fitted or top-dose-only effect, or another doubt; inactive = no such curve, though single readings can be large or run the other way;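 also: the enzyme is Sfp with the accession as filed and its product quenches rhodamine fluorescence; potency is read from the fitted curve at half-maximal effect; 0% = enzyme reaction without inhibitor and -100% = no enzyme wells; top concentration of the series not given in the record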
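Fluorescence-quenching assay: 15 nM Sfp-PPTase preincubated 15 min at room temperature with compound, then 5 uM rhodamine-CoA and 12.5 uM BHQ-2-labelled YbbR peptide added. Fluorescence (ex 525/em 598 nm) read at start and after 30 min; difference gives rate.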
PINK1 modulator: A Quantitative High throughput Screen to Identify Chemical Modulators of PINK1 Expression. PINK1 immunofluorescence, high-content cytometry, 24 h. Potency, µM (doses to about 76.6 µM), for inactives: at the highest dose activation (PINK1 increase), most hits filed as activators. 0.2% of 410,000 active. AID 624263, 2012; active = well fitted activation curve with a large enough effect; inconclusive = small, poorly fitted or top-dose-only effect; inactive = flat fitted curve, though single readings scatter; cell line not stated here;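 also: potency is read from the fitted curve at half-maximal effect; % of control where 0% means no effect; nearly all actives have a fitted effect of over 65% in size; a mitochondrial uncoupler was the plate control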
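Stable cell line treated 24 h with compounds at 5 concentrations (CCCP controls), then fixed and immunostained for PINK1 plus nuclear and cell stains; PINK1 immunofluorescence quantified by laser-scanning microplate cytometry.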
TRPV1 PAM: HTS Assay for Compounds that Act as Potentiators of the Vanilloid Receptor 1. TRPV1-expressing cells, Fluo-8 calcium influx, capsaicin EC20 potentiation; host cell line not named in the record; control for the full effect not named in the record. potentiation, % at 8.33 µM. 0.02% of 320,000 active. AID 540277, 2011; active means potentiation above 80%; inconclusive means 30% to 80%; inactive means below 30%; also: 0% is about no effect
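TRPV1-expressing cells were cultured overnight at 35.5C and loaded with Fluo-8 calcium dye for 40 to 90 min at room temperature. After a 10 s baseline, compound was added and calcium influx was read kinetically for 3 min (ex 480/em 520 nm).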
TRPML1 agonist: qHTS for Agonists of the Human Mucolipin Transient Receptor Potential 1 (TRPML1). 0.12% of 410,000 active. activation, % (test concentration not listed). TRPML1-expressing cells, Ca2+ dye fluorescence, FDSS; host cell line not named in the record; reference of the full effect not given here. AID 624414, 2012; in the data active = activation above about 50%; inconclusive = about 30% to 50%; inactive = below about 30%; also: 0% is about no effect; the text of the record puts the active cut at 80%
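In this qHTS format, compounds were pin-transferred onto Ca8-dye-loaded TRPML1-DL cells induced with Tet overnight, and intracellular Ca2+ fluorescence was recorded kinetically for 110 s after a 10 s baseline. A subsequent 4uM final 54-4 (EC80) addition followed by a second 110 s read served as the antagonist phase.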
Menin MLL FP FL: qHTS Assay for Inhibitors Targeting the Menin-MLL Interaction in MLL Related Leukemias: Competition With Fluorescein Labeled MLL-derived Peptide; FP activity change, % at 61.4 µM; Fluorescence polarization, fluorescein-MLL peptide displacement from menin; 290,000 tested, under 10 active; inconclusive = falling polarisation curve, or a change in total fluorescence; inactive = total fluorescence flat and polarisation flat or rising; no compound was filed as active; the % refers to the polarisation; negative = inhibition;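 also: % of control where 0% means no effect; inhibitors lower the polarisation; unlabelled MLL peptide was the positive control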
Active calls of the source: *; & = joins results of further samples; [ ] = another dose, or the depositor's remark.

The first 3 compounds, ahead of the listing:
Results for COc1ccc(OC)c(NC(=O)C2CCCC2)c1 ?
TRPML1 blocker: 26; ClpP mod: -5.3%; Sfp inh: 15%; PINK1 modulator: 0.2%; TRPV1 PAM: -2; TRPML1 agonist: 0.1; Menin MLL FP FL: 0.1

How did CSc1nc(N(C)C)nc(N2CC(=O)N(CCNS(=O)(=O)c3ccc(C)cc3)C2=N)n1 do in these assays?
TRPML1 blocker: -7; ClpP mod: -1.0%; Sfp inh: -7%; PINK1 modulator: -1.1%; TRPV1 PAM: 5; TRPML1 agonist: -0.6; Menin MLL FP FL: 1.1

What do the screens show for `O=C(Oc1cccc([N+](=O)[O-])c1)c1cc(-c2ccccc2)nc2ccccc12`?
TRPML1 blocker: 54; ClpP mod: -8.8%; Sfp inh: 0%; PINK1 modulator: 2.2%[38.3 µM]; TRPV1 PAM: 0; TRPML1 agonist: 2.2; Menin MLL FP FL: 2.0

Results, from the start:
Results for COc1ccc(OC)c(NC(=O)C2CCCC2)c1 ?
TRPML1 blocker: 26; ClpP mod: -5.3%; Sfp inh: 15%; PINK1 modulator: 0.2%; TRPV1 PAM: -2; TRPML1 agonist: 0.1; Menin MLL FP FL: 0.1

How did CSc1nc(N(C)C)nc(N2CC(=O)N(CCNS(=O)(=O)c3ccc(C)cc3)C2=N)n1 do in these assays?
TRPML1 blocker: -7; ClpP mod: -1.0%; Sfp inh: -7%; PINK1 modulator: -1.1%; TRPV1 PAM: 5; TRPML1 agonist: -0.6; Menin MLL FP FL: 1.1

What do the screens show for `O=C(Oc1cccc([N+](=O)[O-])c1)c1cc(-c2ccccc2)nc2ccccc12`?
TRPML1 blocker: 54; ClpP mod: -8.8%; Sfp inh: 0%; PINK1 modulator: 2.2%[38.3 µM]; TRPV1 PAM: 0; TRPML1 agonist: 2.2; Menin MLL FP FL: 2.0

What do the screens show for `Cc1cc(C)n(CC2CC(=O)N(c3ccc(F)c(Cl)c3)C2=O)n1` (stereo not drawn)?
TRPML1 blocker: -4; ClpP mod: -1.6%; Sfp inh: 11%; PINK1 modulator: 1.9%; TRPV1 PAM: 21; TRPML1 agonist: 0.5; Menin MLL FP FL: -1.0

How did CNCc1sccc1C do in these assays?
TRPML1 blocker: 22; Sfp inh: -4%; PINK1 modulator: 1.3%; TRPV1 PAM: 0; TRPML1 agonist: -0.5; Menin MLL FP FL: -6.4

Results for CCOc1ccc2cc(/C=C/C(=O)c3ccco3)c(Cl)nc2c1 ?
TRPML1 blocker: 34; ClpP mod: -10%; Sfp inh: 5%; PINK1 modulator: 0.9%; TRPV1 PAM: 1; TRPML1 agonist: 0.7; Menin MLL FP FL: 13

How did N#CCCn1c(=O)cnc2cnc(Oc3cccc(Cl)c3)nc21 do in these assays?
Sfp inh: 16%; PINK1 modulator: -0.3%; Menin MLL FP FL: -2.3

Results for CCOc1ccc(S(=O)(=O)N2CCN(Cc3ccccc3)CC2)c2cccnc12 ?
TRPML1 blocker: -5; ClpP mod: 3.3%; Sfp inh: -6%; PINK1 modulator: -1.4%; TRPV1 PAM: -4; TRPML1 agonist: 1.7; Menin MLL FP FL: -5.3

What do the screens show for `O=C(COc1ccc2ccccc2c1)NC1CC1`?
TRPML1 blocker: 7; ClpP mod: 1.2%; Sfp inh: 11%; PINK1 modulator: 0.4%; TRPV1 PAM: -18; TRPML1 agonist: 0.3; Menin MLL FP FL: -2.7

How did CCOC(=O)c1c(C)c(-c2ccccc2)n(CC(=O)Nc2ccc(OCC)cc2)c1C do in these assays?
TRPML1 blocker: 2; ClpP mod: 1.4%; PINK1 modulator: 0.6%; TRPML1 agonist: -0.2

What do the screens show for `O=C(C1=C(O)C(=O)N(CCN2CCOCC2)C1c1cccc(Br)c1)c1cc2ccccc2o1` (stereo not drawn)?
TRPML1 blocker: 1; ClpP mod: -4.4%; Sfp inh: 11%; PINK1 modulator: -0.2%; TRPV1 PAM: 11; TRPML1 agonist: 0.7

Results for Cn1c(CCC(=O)Nc2ccc(N3CCOCC3)cc2)nc(=O)c2ccccc21 ?
TRPML1 blocker: 3; ClpP mod: -4.3%; Sfp inh: 1%; PINK1 modulator: 2.9%; TRPV1 PAM: 12; TRPML1 agonist: 1.4; Menin MLL FP FL: 2.8

What do the screens show for `O=C(COC(=O)CNC(=O)c1cccs1)Nc1ccccc1C(F)(F)F`?
TRPML1 blocker: 5; ClpP mod: -1.8%; Sfp inh: 11%; PINK1 modulator: 0.1%; TRPV1 PAM: 6; TRPML1 agonist: -0.6; Menin MLL FP FL: -0.3

What do the screens show for `C[C@H]1COC(=O)[C@H](Cc2ccc(F)cc2)C/C=C\C[C@@H](CC(=O)NCCO)C(=O)N1`?
TRPML1 blocker: -12; ClpP mod: 0.1%; PINK1 modulator: 0.8%; TRPML1 agonist: -0.6

How did COc1cc(NC2c3ccccc3C(=O)N2c2ccc(C)cn2)cc(OC)c1OC (stereo not drawn) do in these assays?
TRPML1 blocker: -1; ClpP mod: -1.2%; Sfp inh: -20%; PINK1 modulator: 3.1%; TRPV1 PAM: 3; TRPML1 agonist: 0.4; Menin MLL FP FL: 1.5

What do the screens show for `COc1ccc(CC(=O)Nc2cc(C)on2)cc1`?
TRPML1 blocker: 19; ClpP mod: 1.3%; Sfp inh: 21%; PINK1 modulator: -4.6%; TRPV1 PAM: 6; TRPML1 agonist: -0.9; Menin MLL FP FL: 1.1

How did CCOC(=O)c1[nH]c2ccccc2c1NC(=O)c1ccc(OC)c(OC)c1 do in these assays?
TRPML1 blocker: -22; ClpP mod: 5.9%; PINK1 modulator: -0.2%; TRPML1 agonist: -0.7

How did CCCCCn1c(-c2ccc(OC)c(OC)c2)nc2ccccc21 do in these assays?
TRPML1 blocker: -4; ClpP mod: -1.0%; PINK1 modulator: 14%; TRPML1 agonist: 3.4

What do the screens show for `CCCSc1nc(C)cc(C)c1C(N)=O`?
TRPML1 blocker: 28; ClpP mod: -2.8%; Sfp inh: 7%; PINK1 modulator: inconclusive; TRPV1 PAM: 8; TRPML1 agonist: 0.9; Menin MLL FP FL: -0.4

How did Cc1cccc(C)c1Nc1nnc(SCC(=O)Nc2ncc(C(F)(F)F)cc2Cl)s1 do in these assays?
TRPML1 blocker: -8; ClpP mod: inconclusive; Sfp inh: -12%; PINK1 modulator: 2.8%; TRPV1 PAM: 0; TRPML1 agonist: -0.4; Menin MLL FP FL: 0.8

Results for CN1CCc2c(sc3nc(NCCO)n(-c4cccc(Cl)c4)c(=O)c23)C1 ?
TRPML1 blocker: -13; ClpP mod: 4.1%; Sfp inh: 10%; PINK1 modulator: 2.5%; TRPV1 PAM: -8; TRPML1 agonist: -0.6; Menin MLL FP FL: 10

How did COc1ccc(C(=O)N/N=C\c2ccoc2)cc1 do in these assays?
TRPML1 blocker: 2; ClpP mod: 0.7%; Sfp inh: 0%; PINK1 modulator: -0.3%; TRPV1 PAM: -3; TRPML1 agonist: 0.2; Menin MLL FP FL: 0.3

How did O=S1(=O)CC(N2CCSCC2)CN1Cc1cn(Cc2cccc(Cl)c2)nn1 (stereo not drawn) do in these assays?
ClpP mod: 1.2%; PINK1 modulator: -0.7%; TRPML1 agonist: -0.3

What do the screens show for `Cc1ccc(NC(=O)CCNS(=O)(=O)c2cccs2)cc1F`?
TRPML1 blocker: 22&38; ClpP mod: -0.1%; Sfp inh: 11%; PINK1 modulator: 0.3%&1.3%; TRPV1 PAM: -1; TRPML1 agonist: -0.5&-0.7; Menin MLL FP FL: -1.8

What do the screens show for `C[C@@H]1CN([C@H](C)CO)C(=O)c2cc(NC(=O)C3CCCCC3)ccc2O[C@@H]1CN(C)Cc1ccc(C(F)(F)F)cc1`?
TRPML1 blocker: -4; ClpP mod: -15%; PINK1 modulator: -0.2%; TRPML1 agonist: -0.1

How did CCOC(=O)N1CCN(CC(=O)N2c3ccccc3CCc3ccccc32)CC1 do in these assays?
TRPML1 blocker: -10; ClpP mod: 1.8%; Sfp inh: 3%; PINK1 modulator: 0.2%; TRPV1 PAM: 3; TRPML1 agonist: 0.7; Menin MLL FP FL: 0.5

Results for COc1ccc(C(=O)CCN2CCCCCC2)cc1 ?
TRPML1 blocker: 4; ClpP mod: 0.7%; Sfp inh: inconclusive; PINK1 modulator: 4.7%[38.3 µM]; TRPV1 PAM: inconclusive; TRPML1 agonist: 3.8; Menin MLL FP FL: -1.0

Results for CN(C)S(=O)(=O)c1ccc(NC(=O)CCNC(=O)c2ccco2)cc1 ?
TRPML1 blocker: -9; Sfp inh: 13%; PINK1 modulator: 12%; TRPV1 PAM: -4; TRPML1 agonist: -0.1; Menin MLL FP FL: -2.4

What do the screens show for `O=C(N/C(=C/c1cccc(Br)c1)C(=O)N1CCOCC1)c1ccco1`?
TRPML1 blocker: -1; ClpP mod: 0.9%; PINK1 modulator: 1.6%; TRPML1 agonist: 0.0

Results for O=c1[nH]cc(Cc2ccccc2)c(=O)[nH]1 ?
TRPML1 blocker: 8; ClpP mod: 0.6%; PINK1 modulator: 0.4%; TRPML1 agonist: 0.0

How did Cc1cccc(Cn2nc(C(C)(C)C)cc2C(=O)N2CCOCC2)c1 do in these assays?
TRPML1 blocker: 5; ClpP mod: -0.2%; Sfp inh: 16%; PINK1 modulator: -3.6%; TRPV1 PAM: -7; TRPML1 agonist: 2.2; Menin MLL FP FL: 5.2

Results for CN(C)C(CNC(=O)C1CCN(S(=O)(=O)c2cccc(C(F)(F)F)c2)CC1)c1ccccc1 (stereo not drawn) ?
TRPML1 blocker: 2; Sfp inh: 5%; PINK1 modulator: -0.1%; TRPV1 PAM: -5; TRPML1 agonist: -0.2; Menin MLL FP FL: -1.0

How did COc1ccc(C(=O)CSc2nnc3ccccn23)cc1OC do in these assays?
TRPML1 blocker: 18; ClpP mod: 1.7%; Sfp inh: 13%; PINK1 modulator: -0.1%; TRPV1 PAM: -5; TRPML1 agonist: 0.3; Menin MLL FP FL: -0.1

Source: PubChem (National Center for Advancing Translational Sciences (NCATS))
